# 2A StopGo = lowers the luciferase signal of an FMDV 2A StopGo reporter; human cells with a luciferase reporter of 2A StopGo recoding; control for the full effect not named in the record; Potency, µM (highest dose often 57.9 µM), for inactives: at the highest dose signal change, negative = less light; 410,000 tested, 1.2% active; active = well fitted falling curve with a large enough effect; inconclusive = small, poorly fitted or top-dose-only effect; inactive = no such curve, though single readings can be large or run the other way; tested in HEK293T cells; also: % is scaled to controls: 0 for no effect and ±100 for the full control effect; nearly all actives have a fitted effect of over 45% in size; luciferase light after 4 h
# LASV entry inh = blocks Lassa virus binding to or entry into cells. Lassa virus pseudotype entry inhibition, cell reporter; control for the full effect not named in the record. Potency, µM (doses to about 37.9 µM), for the others: at the top dose activity change, negative = inhibition, actives largely listed as inhibitors. 300,000 tested, 1.2% active; active means well fitted inhibition curve with a large enough effect; inconclusive means small, poorly fitted or top-dose-only effect, or effect the other way; inactive means flat fitted curve, though single readings scatter; tested in HEK293 cells; also: % is scaled to controls: 0 for no effect and ±100 for the full control effect; nearly all actives have a fitted effect of over 50% in size; luciferase read-out
# SARS PLP yeast = inhibitors of SARS-CoV papain-like protease in yeast; Potency, µM (doses to about 32.9 µM), for inactives: top-dose activity, positive = growth rescue; S. cerevisiae expressing SARS-CoV PLpro, growth rescue; control for the full effect not named in the record; 330,000 tested, 0.19% active; AID 485353; also: 0% is about no effect; nearly all actives have a fitted effect of over 55% in size; growth read by luminescence after 48 h
# MARV entry inh = Marburg virus entry inhibition | Marburg virus pseudotyped entry inhibition, cell reporter; control for the full effect not named in the record; about a third of the inactives were read at about 46 µM | Potency, µM (doses to about 37.8 µM), without a hit: at the highest dose activity change, negative = inhibition, hits mostly inhibitors | 300,000 tested, 1.8% active; active = well fitted inhibition curve with a large enough effect; inconclusive = small, poorly fitted or top-dose-only effect, or effect the other way; inactive = flat fitted curve, though single readings scatter; tested in HEK293 cells; about a fifth of its hits are not listed in these tables; also: % is scaled to controls: 0 for no effect and ±100 for the full control effect; luciferase read-out
# Cruzain inh Det = blocks cruzain activity in presence of Triton detergent. purified cruzain, Z-FR-AMC fluorescence, 0.01% Triton. AID 1478. Potency, µM, inactives show max response, negative = inhibition, usual class: inhibitors. 200,000 tested, 0.43% active; active = well fitted curve in the direction sought with a large enough effect; inconclusive = small, poorly fitted or top-dose-only effect, or another doubt; inactive = no such curve, though single readings can be large; an effect the other way counts as inactive or inconclusive;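 also: plate controls were neutral wells for no effect and buffer without enzyme for full effect; nearly all actives have a fitted effect of over 40% in size; top concentration of the series not given in the record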
# Target sequence (P25779 123-467 limits assumed): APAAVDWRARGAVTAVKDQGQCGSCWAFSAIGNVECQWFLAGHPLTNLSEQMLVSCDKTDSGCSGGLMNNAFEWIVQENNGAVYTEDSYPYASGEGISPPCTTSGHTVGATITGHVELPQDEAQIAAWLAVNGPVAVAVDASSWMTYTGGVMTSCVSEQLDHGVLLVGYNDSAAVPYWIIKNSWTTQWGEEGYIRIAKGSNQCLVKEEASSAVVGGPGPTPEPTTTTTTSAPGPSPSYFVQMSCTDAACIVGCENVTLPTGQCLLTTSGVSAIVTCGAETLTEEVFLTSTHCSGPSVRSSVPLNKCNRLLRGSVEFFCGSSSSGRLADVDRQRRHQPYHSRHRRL
#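 In this qHTS format, compounds are incubated with 1.5 nM cruzain for 15 min at room temperature before 2 uM Z-FR-AMC is added. Release of AMC is followed at 360/450 nm, and progress is taken as the 60 s fluorescence difference.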
# Cruzain inh noDet = cruzain (T. cruzi) inhibition without detergent | P25779 | purified cruzain, Z-FR-AMC fluorescence, no detergent | Potency, µM, without a hit: max response, negative = inhibition, usual class: inhibitors | 200,000 tested, 2.3% active | AID 1476; active = well fitted curve in the direction sought with a large enough effect; inconclusive = small, poorly fitted or top-dose-only effect, or another doubt; inactive = no such curve, though single readings can be large; an effect the other way counts as inactive or inconclusive;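 also: plate controls were enzyme without inhibitor for no effect and buffer without enzyme for full effect; nearly all actives have a fitted effect of over 40% in size; top concentration of the series not given in the record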
#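 Detergent-free condition (0.00005% Triton X-100) in acetate buffer pH 5.5 with DTT. 1.5 nM enzyme and compound were pre-mixed 15 min, then 2 uM Z-FR-AMC substrate added; reaction progress from fluorescence change between first and third reads (60 s).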
# RE007 growth inh = less growth of the S. pombe RE007 Vpr strain; AID 651644; Potency, µM (doses to about 92.2 µM), inactives show top-dose activity change, negative = less growth; S. pombe RE007 Vpr strain, BacTiter-Glo ATP luminescence, 24 h; control for the full effect not named in the record; 360,000 tested, 0.21% active; active = well fitted falling curve with a large enough effect; inconclusive = small, poorly fitted or top-dose-only effect; inactive = no such curve, though single readings can be large or run the other way;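 also: % is scaled to controls: 0 for no effect and ±100 for the full control effect; nearly all actives have a fitted effect of over 50% in size; the assay follows cell death caused by Vpr and the record does not say whether a fall means rescue or toxicity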
#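 Fission yeast strain RE007, carrying one chromosomally integrated HIV-1 vpr copy, was seeded at OD 0.01 in PMG+AL medium with 23 nL pinned compound. After 24 h at 30 °C and 99% humidity, viability was read by BacTiter-Glo luminescence.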
# NS1 function inh = inhibitors of influenza NS1 protein function; S. cerevisiae slowed by influenza A NS1, growth recovery by OD600; Potency, µM (titrated, usually from 46.1 µM), without a hit: at the top dose activity, positive = more growth; 270,000 tested, 0.4% active; also: actives are rising curves; nearly all actives have a fitted effect of over 50% in size
#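 Read-out: OD600 growth recovery of NS1-expressing budding yeast. Cells grown overnight at 30C in -URA glucose medium, washed, resuspended and diluted 1:100 in 2% galactose assay medium, pH 6.0. Same strain lacking NS1 served as positive control.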
# An asterisk follows results filed as active; u = inconclusive; x = no result given; & = joins results of further samples; [ ] = another dose, or the depositor's remark. Unless noted, calls follow the shape of the dose curve; as a rule, active means well fitted rising curve with a large enough effect; inconclusive means small, poorly fitted or top-dose-only effect; inactive means no such curve, though single readings can be large or run the other way. Potency is read from the fitted curve at half-maximal effect.
SMILES,2A StopGo,LASV entry inh,SARS PLP yeast,MARV entry inh,Cruzain inh Det,Cruzain inh noDet,RE007 growth inh,NS1 function inh
O=C(O)c1ccc(NCc2nc3ccccc3n2Cc2ccccc2F)cc1,-6.7%,x,2.0%,x,x,x,-4.7%,4.0%
COc1cc(CNc2nc3ccccc3s2)cc(OC)c1OC,-11.5%,u,-0.2%,u,x,x,-17.8%,-9.1%
O=C(CN1CCC(O)(c2ccccc2F)CC1)NCCc1c[nH]c2ccccc12,x,u,u,-17.8%,0.4%,3.6%,-8.6%,-5.3%
Cc1cc(C(=O)O)ccc1NCc1cccnc1,4.2%,6.8%,3.1%,-0.3%,x,x,-8.8%,0.0%
CCC(C)(C(=O)NC1CCCC1)N(C(=O)CNC(=O)c1ccccc1)c1c(C)n(C)n(-c2ccccc2)c1=O (configuration not stated),7.4%,2.7%,-0.2%,2.0%[46.1 µM],x,x,14.8%,x
C=CCn1c(=O)c(C=Nc2cccnc2Cl)c(O)n(CCCC)c1=O,-0.7%,10.3%,3.2%,14.6%,-5.5%,-5.8%,14.9%,13.2%
O=C1NC(c2ccc(Cl)cc2)=COc2ccccc21,7.7%,0.1%,-0.8%,16.7%[46.1 µM],x,x,-13.9%,x
Nc1nnc(SCC(=O)Nc2ccc3c(c2)OCCO3)s1,37.9%[activator],u,3.9%,11.0%,0.2%,-5.6%,10.9%[3.69 µM],1.1%
Cc1ccc(N=CC2=C(O)CC(c3ccc(Cl)cc3)CC2=O)cc1 (configuration not stated),0.0%,-0.9%,14.6%,-1.4%,17.3%,u,-13.4%,17.7%
O=C(c1ccco1)c1cn(CCOc2ccc(Cl)cc2)c2ccccc12,-10.5%,u,x,u,-1.8%,9.4%,x,x
O=[N+]([O-])c1ccc(Cl)c2c1C1C=CCC1C(c1ccccn1)N2 (configuration not stated),u,-0.4%,-0.5%,u,x,x,-17.4%,12.0%
Cc1ccc(CNC(=O)CNC(=O)[C@@H]2Cc3ccccc3CN2)cc1,-8.4%,1.6%[46.1 µM],1.2%,20.0%[46.1 µM],x,x,3.4%,-4.9%
COC(=O)c1c(NC(=O)C2CCCCC2)sc2c1CC(C)(C)NC2(C)C,-25.7%,x,-2.0%,x,x,x,-19.6%,-9.2%
Cn1c(SCC(=O)N/N=C/c2ccccn2)nnc1-c1ccccc1,5.2%,13.3%,0.2%,2.9%[46.1 µM],x,x,-5.2%,-5.8%
CC(C)N(Cc1c(O)ccc2c(=O)c(-c3ccc(Cl)cc3)coc12)C(C)C,27.5%,x,-7.5%,x,x,x,15.3%,-3.9%
Cc1ccc2nc(N/N=C/c3ccco3)cc(C)c2c1,34.5%[activator],x,2.1%,x,x,x,-10.6%,-8.4%
O=C(Nc1ccc(S(=O)(=O)N2CCCCCC2)cc1)C1CCCO1 (configuration not stated),33.5%[activator],6.8%,-1.5%,7.0%,-0.7%,-0.5%,36.7%,-3.1%
COc1ccccc1C(=O)COC(=O)c1c(-c2ccccc2)noc1C,-21.2%,u,-11.4%,-1.4%[46.1 µM],x,x,-10.5%,x
O=C(Nc1ccc2ncccc2c1)c1cc(Cl)ccc1Cl,12.7%,10.7%[46.1 µM],-5.3%,u,x,x,u,x
O=C(Nc1cccc2ccccc12)c1ccc([N+](=O)[O-])cc1,20.3%,x,2.1%,x,x,x,-10.2%,-11.3%
CCCS(=O)(=O)c1c(S(=O)(=O)CCC)c2c(C)cccn2c1C(=O)N/N=C/c1cc(O)cc(O)c1,-14.1%,x,14.3%,x,x,x,0.6%,12.1%
NC(N)=Nc1nc(-c2ccccc2)c2ccccc2n1,-11.0%,-22.9%[46.1 µM],-1.6%,u,x,x,-6.8%,-0.7%
CCCCNC(=O)Nc1ccccc1Br,21.3%,-21.3%,-1.2%,-13.0%,-1.3%,-0.2%,9.0%,-23.4%
C=CCn1c(SCC(=O)Nc2sccc2C(N)=O)nc2ccccc2c1=O,u,u,-1.8%,u,-3.2%,-7.4%,5.0%,2.9%
CC(C)(CNC(=O)c1cccc(S(=O)(=O)Nc2ccc(Br)cc2)c1)N1CCOCC1,-3.6%,-10.6%,1.8%,u,x,x,-3.5%,x

# Quoted at random: 2 entries already listed.
SMILES,2A StopGo,LASV entry inh,SARS PLP yeast,MARV entry inh,Cruzain inh Det,Cruzain inh noDet,RE007 growth inh,NS1 function inh
COc1ccccc1C(=O)COC(=O)c1c(-c2ccccc2)noc1C,-21.2%,u,-11.4%,-1.4%[46.1 µM],x,x,-10.5%,x
O=C(Nc1cccc2ccccc12)c1ccc([N+](=O)[O-])cc1,20.3%,x,2.1%,x,x,x,-10.2%,-11.3%

# Back to the main list; the 3 compounds before the break are reprinted first.
SMILES,2A StopGo,LASV entry inh,SARS PLP yeast,MARV entry inh,Cruzain inh Det,Cruzain inh noDet,RE007 growth inh,NS1 function inh
CCCCNC(=O)Nc1ccccc1Br,21.3%,-21.3%,-1.2%,-13.0%,-1.3%,-0.2%,9.0%,-23.4%
C=CCn1c(SCC(=O)Nc2sccc2C(N)=O)nc2ccccc2c1=O,u,u,-1.8%,u,-3.2%,-7.4%,5.0%,2.9%
CC(C)(CNC(=O)c1cccc(S(=O)(=O)Nc2ccc(Br)cc2)c1)N1CCOCC1,-3.6%,-10.6%,1.8%,u,x,x,-3.5%,x
CN(C(=O)c1cncc(Br)c1)C1C2CC3CC(C2)CC1C3 (configuration not stated),17.1%,-0.4%,-5.7%,12.5%,x,x,-2.4%,-10.1%
N#Cc1cn(Cc2cccc(Cl)c2)c2ccccc12,-37.4%,-26.7%,-9.5%,-25.5%,-5.8%,-18.0%,17.9%,-43.2%
CCn1ccc2cc(S(=O)(=O)N3CCCN(C(=O)Nc4ccc(C)c(F)c4)CC3)ccc21,u,u,x,x,-4.6%,u,x,x
NS(=O)(=O)c1ccc(NC(=S)Nc2ccc(Br)c(Cl)c2)cc1,-16.4%,u,-11.0%,u,x,x,u,x
O=C(/C=C/c1cccc([N+](=O)[O-])c1)c1ccc2c(c1)OCCO2,-17.7%,-5.3%,8.4%,u,-4.4%,u,-4.6%,-8.3%
Cc1nnc(SCC(=O)N(CC(C)C)C2CCS(=O)(=O)C2)s1 (configuration not stated),-18.5%,2.8%,0.6%,u,x,x,6.0%,x
CC(C)C[C@@H]1NC(=O)[C@H](Cc2ccc(O)cc2)NC(=O)[C@H](CCC(N)=O)NC(=O)c2cc([N+](=O)[O-])cc(I)c2NCC[C@@H](C(N)=O)NC1=O,x,1.7%,-15.2%,-2.9%,-15.0%,6.4%,x,-25.0%
O=C(CCCC(=O)NN=Cc1cccc(O)c1)NN=Cc1cccc(O)c1,7.7%,12.6%,x,15.8%,x,x,2.2%,x
O=C1C2C3C=CC(C2C(=O)N1c1nccs1)C1C(=O)N(c2nccs2)C(=O)C31 (configuration not stated),12.2%,16.3%,1.3%,0.2%[46.1 µM],x,x,16.3%,x
C=C1CCN([C@H](C(=O)NCc2ccc(Cl)cc2)C(C)C)S(=O)(=O)c2ccccc21,-17.7%,x,-0.2%,x,x,x,8.2%,-3.3%
COC(=O)CN(c1cccc(C)c1)S(=O)(=O)c1ccccc1,-10.4%,x,0.3%,x,x,x,0.9%,-7.3%
Nc1ccc(C(=O)NCCCSc2ccccc2)cc1[N+](=O)[O-],16.3%,-22.7%[46.1 µM],1.2%,2.0%[46.1 µM],x,x,5.1%,-3.8%
Cc1cc(C)c(NC(=O)COC(=O)C23CC4CC(CC(O)(C4)C2)C3)c(Cl)c1,1.1%,2.5%,1.0%,u,x,x,0.1%,x
CN(Cc1ccccc1)C(=S)Nc1cccnc1,8.0%,x,0.2%,0.5%[46.1 µM],x,x,7.9%,x
O=C(N/N=C/c1ccc(Cl)cc1)c1cc(-c2cccnc2)nc2ccccc12,-10.6%,11.3%,-3.2%,u,x,x,5.9%,x
Cc1cc(S(=O)(=O)NCC(c2ccco2)S(=O)(=O)c2cccs2)ccc1F (configuration not stated),70.3%[activator],-0.4%[46.1 µM],x,x,-7.1%,7.6%,x,x
CC(c1nnc(SCC(=O)Nc2ccc3[nH]c(=O)[nH]c3c2)n1Cc1ccccc1)N(C)C (configuration not stated),15.9%,-3.4%,-3.9%,-6.0%,-1.0%,-4.5%,-3.5%,-7.2%
N#CC1=C(c2ccc(-c3ccccc3)cc2)COC1=O,u,16.0%,-5.7%,10.2%[46.1 µM],x,x,11.4%,x
C/C(CC(=O)Nc1ccc(N(C)C)cc1)=N\NC(=O)c1ccccn1,4.9%,-3.8%,-9.7%,u,1.0%,-1.8%,-4.3%,1.9%
Cc1ccc(C(=O)Nc2sc3c(c2C(=O)O)CCCCC3)o1,-44.4%,7.94µM*,-16.4%,6.31µM*,-17.8%,-14.7%,u,-40.9%
CCOC(=O)C1=C(C)N=C2SCCC(=O)N2C1c1cc(Br)ccc1OC (configuration not stated),-29.2%,1.5%,x,0.4%&0.4%,x,x,8.1%,-17.4%
O=C(Nc1ccccc1)Nc1ccc(S(=O)(=O)N2CCCCC2)cc1,44.5%[activator],-11.8%,-22.9%,-16.0%[46.1 µM],-8.7%,u,4.1%,-33.1%
O=C(NCc1ccccc1Cl)c1ccc(Nc2nc3ccccc3n3nnnc23)cc1,10.0%,27.1%[46.1 µM],x,6.3%[46.1 µM],-2.8%,2.6%,x,x
COC(=O)C(CCSC)NC(=O)c1cc2c(n(-c3ccccc3)c1=O)CCCC2=O (configuration not stated),-6.3%,-0.4%[46.1 µM],0.1%,u,x,x,0.8%,-2.0%
CC(C)CN1CCc2nc(N3CCN(C)CC3)ncc2C1,1.8%,u,x,x,-0.5%,-3.3%,x,x
COc1ccccc1NC(=O)COc1ccc(C(=O)OCC(=O)N(C(C)C)C(C)C)cc1OC,u,-2.7%,-4.0%,-11.4%,-0.7%,u,1.7%,4.4%
